Screens (PubChem BioAssay)
Autofluor counter: compound fluorescence in toxin protease inhibitor counterscreen; compound autofluorescence counterscreen, microsphere flow cytometry; hits give high values; 3.1% of 360,000 active; fluorescence intensity (no concentration beside the values); AID 624483;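 active = at least 3 SD above the mean of all compounds, about 16000 in these data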;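 also: 100 nL of 1 mM stock went into each well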
PrP 5UTR inh: inhibition of PrP 5' UTR reporter expression | inhibition, % (concentration not given with the values) | AID 488862, 2010 | cell-based PrP 5' UTR mRNA reporter, plate reader | 0.35% of 340,000 active;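 active = every replicate at 50% or more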;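 also: 0 = median of the neutral control wells; tested in H4 reporter cells; numbers are from one replicate; inactives centre near -14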
Sa RN4220 lethal: growth inhibition of S. aureus RN4220, primary screen, OD600 | 16 h | inhibition, % (concentration not given with the values) | 0.33% of 330,000 active;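 active = z-score of -3 or lower and OD600 up to 0.18 on both plates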;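 also: plate controls were untreated cells for no effect and reference antibiotic for full effect; stock transfer was 100 nL into about 80 µL; one replicate is shown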
BJeLR lethal: MLPCN primary cell-based screen for lethality selective to Ras in HRASV12 cells; AID 1554, 2009; inhibition, % (test concentration not listed); 0.17% of 300,000 active; BJeLR (HRASV12) viability, CellTiter-Glo ATP luminescence, 48 h; reference of the scale not given here;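 active = replicate mean above 50%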;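 also: 50 nL library stock added to about 25 µL; numbers are from one replicate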
Mtb hypoxia inh: PubChem AID 1159583. M. tuberculosis hypoxia-regulated fluorescent reporter, fluorescence. fluorescence inhibition, % (test concentration not listed). 0.1% of 300,000 active;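 active = 35 to 45% if threefold the growth effect, above 45% if 1.5-fold the growth effect; inactive = the rest, general growth blockers included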;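 also: wells of about 50 µL received 100 nL stock; 0% = vehicle wells and 100% = reference inhibitor wells; whole bacteria with a GFP reporter of the hypoxia response; strong numbers were not always called active; many hits fall short of the cut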
Sa ugtP lethal: growth inhibition of ugtP-null S. aureus, primary screen, RN4220 ugtP deletion, OD600 | 16 h; some inactives read as strong as hits | growth inhibition, % (concentration not given with the values) | 0.54% of 330,000 active | AID 1259309, 2017;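 active = z-score under -3 and OD600 up to 0.15 on both plates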;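 also: plate controls were untreated wells for no effect and antibiotic for full effect; wells of about 80 µL received 100 nL stock; the first replicate is given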
Mtb hypoxia inh growth: further read-out of Mtb hypoxia inh, marked with its call; growth inhibition, %; measured here: M. tuberculosis growth (absorbance);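 0% = vehicle and 100% = reference antibiotic; read after six days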
* hit, by the source's call; / = not tested or not shown.

SMILES	Autofluor counter	PrP 5UTR inh	Sa RN4220 lethal	BJeLR lethal	Mtb hypoxia inh	Mtb hypoxia inh growth	Sa ugtP lethal
CC(C)Cc1nnc(NC(=O)CN2C(=O)NC3(CCCCC3)C2=O)s1	4141	-9	1.4	4	8	9	1
O=C1N[C@@H](Cc2ccccc2)C(=O)N2[C@H]1C[C@]1([C@]34C[C@H]5C(=O)N[C@@H](Cc6ccccc6)C(=O)N5[C@H]3N(S(=O)(=O)c3ccccc3)c3ccccc34)c3ccccc3N(S(=O)(=O)c3ccccc3)[C@H]21	4014	-17	/	-3	/	/	/
CCS(=O)(=O)N1CCC(C(=O)NCCCN2CCN(c3ccccc3F)CC2)CC1	9980	-18	4.9	-8	11	10	0
CC(Sc1nccn1C)C(=O)Nc1ccc(Cl)cn1 (centres undefined)	6391	-14	1.8	10	3	-1	4
O=C(O)Cn1c(SCCOc2ccc(Cl)cc2)nc2ccccc21	2867	-17	-5.1	2	-5	-2	0
O=C(Nc1nccs1)c1ccc(-c2ccc(F)c(Cl)c2)o1	5669	-62	16	4	8	-3	13
Cc1ccc2nc(-c3ccccc3)cc(C(=O)O)c2c1	10404	-23	10	2	-2	0	-11
CC(C)Oc1ccc(OCCn2c(=S)[nH]c3c(N)ncnc32)cc1	4886	-8	-1.7	-1	15	6	6
COC(=O)c1cc(S(=O)(=O)NCc2cccc(Br)c2)c[nH]1	5308	-21	2.3	-9	11	5	0
C/C=C/C(=O)OCC(=O)Nc1cccc(S(=O)(=O)NC2=NCCCCC2)c1	4328	-24	11	-5	-8	0	6
CCN(Cc1ccncc1)C(=O)c1cccc(S(=O)(=O)N2CCCCC2)c1	3879	1	4.2	/	-1	5	2
COC(=O)CN1CC(=O)N(c2ccccc2)C1=S	4663	-22	-0.9	-2	2	-2	2
Cc1ccc(-n2c(Cc3cccn3C)nnc2SCC(=O)Nc2nnc(C)s2)cc1	9428	-15	7.6	-2	-7	-3	0
CCN1C(=O)[C@H]2[C@@H](c3ccc(OC)cc3)N3C(=O)CN(CCOC)C(=O)[C@@]3(C)[C@H]2C1=O	3336	-21	/	2	/	/	/
COC(=O)CNC(=O)CCc1nnc(C2(c3ccc(Cl)cc3)CCC2)o1	4322	-49	1.0	0	17	5	2

6 records picked at random from those above, as already listed:
SMILES	Autofluor counter	PrP 5UTR inh	Sa RN4220 lethal	BJeLR lethal	Mtb hypoxia inh	Mtb hypoxia inh growth	Sa ugtP lethal
CCS(=O)(=O)N1CCC(C(=O)NCCCN2CCN(c3ccccc3F)CC2)CC1	9980	-18	4.9	-8	11	10	0
CC(C)Oc1ccc(OCCn2c(=S)[nH]c3c(N)ncnc32)cc1	4886	-8	-1.7	-1	15	6	6
COC(=O)CN1CC(=O)N(c2ccccc2)C1=S	4663	-22	-0.9	-2	2	-2	2
COC(=O)CNC(=O)CCc1nnc(C2(c3ccc(Cl)cc3)CCC2)o1	4322	-49	1.0	0	17	5	2
CC(C)Cc1nnc(NC(=O)CN2C(=O)NC3(CCCCC3)C2=O)s1	4141	-9	1.4	4	8	9	1
Cc1ccc2nc(-c3ccccc3)cc(C(=O)O)c2c1	10404	-23	10	2	-2	0	-11

The listing continues:
SMILES	Autofluor counter	PrP 5UTR inh	Sa RN4220 lethal	BJeLR lethal	Mtb hypoxia inh	Mtb hypoxia inh growth	Sa ugtP lethal
COc1ccc(Nc2cc(Cl)nc(N)n2)cc1	4569	-23	6.6	6	10	6	7
CCOC(=O)Nc1ccc2c(c1)N(C(=O)OC)c1ccccc1CC2	5756	-29	4.6	-1	6	14	-1
CCOC(=O)c1c(NC(=O)CCN2CCOCC2)sc2c1CC(C)(C)OC2	10129	-10	-0.2	-5	-14	-5	2
NC(=O)NN=C/C=C/C=C/c1ccc(F)cc1	/	/	4.6	/	9	4	7
CC(=NNC(=O)c1ccc(N(C)C)cc1)c1ccc(C)c(C)c1	/	/	2.5	/	1	-1	12
CCCC(CCC)n1[nH]c(=O)c2c(C)cc(C)nc21	2780	-28	-1.2	/	/	/	-3
Cc1ccccc1OCC(=O)NN=Cc1ccc(N2CCOCC2)o1	/	/	0.2	/	1	16	-6
CCCN(CCC)C(=O)c1cc([N+](=O)[O-])cc2c1-c1ccc([N+](=O)[O-])cc1C2=C(C#N)C#N	/	/	6.1	4	-11	-21	-1
C=CCn1c(CNC(=O)c2ccco2)nnc1SCC(=O)c1ccc(OC)cc1	3773	-25	-5.6	3	-6	11	3
CCn1c(=O)c(C(=O)NCCc2ccc(Cl)cc2)c(O)c2ccccc21	3936	-7	5.6	0	15	2	16
COc1ccc(C)cc1N(C(=O)c1ccccc1F)c1nc2ccccc2s1	8715	-26	-2.8	0	16	7	62
CCCCOC(=O)c1ccc(NC(=O)COC(=O)CN2C(=O)NC3(CCCC3)C2=O)cc1	5896	-19	-0.4	2	10	2	1
CC(C)(C)NC(=O)C[C@H]1C[C@H](C(=O)N2CCOCC2)[C@@]2(C)c3[nH]c4cc(-c5ccco5)ccc4c3CCN2C1=O	3987	-38	2.7	/	-6	10	-2
CC(=O)Nc1ccc(-n2cnnn2)cc1	4511	-10	5.6	-10	16	16	-1
COc1cc(C(=O)Nc2cc(-c3cn4cccnc4n3)ccc2C)cc(OC)c1OC	4553	-20	6.0	-2	6	0	2

Three neighbouring entries out of the list so far, quoted:
SMILES	Autofluor counter	PrP 5UTR inh	Sa RN4220 lethal	BJeLR lethal	Mtb hypoxia inh	Mtb hypoxia inh growth	Sa ugtP lethal
Cc1ccccc1OCC(=O)NN=Cc1ccc(N2CCOCC2)o1	/	/	0.2	/	1	16	-6
CCCN(CCC)C(=O)c1cc([N+](=O)[O-])cc2c1-c1ccc([N+](=O)[O-])cc1C2=C(C#N)C#N	/	/	6.1	4	-11	-21	-1
C=CCn1c(CNC(=O)c2ccco2)nnc1SCC(=O)c1ccc(OC)cc1	3773	-25	-5.6	3	-6	11	3

Continuation:
SMILES	Autofluor counter	PrP 5UTR inh	Sa RN4220 lethal	BJeLR lethal	Mtb hypoxia inh	Mtb hypoxia inh growth	Sa ugtP lethal
Cc1ccc(SCc2noc(C(=O)NCC3CCCO3)c2C(=O)O)cc1C (centres undefined)	3670	-33	7.0	-7	10	-5	6
Nc1[nH]n(-c2ccccc2)c(=O)c1N=Nc1ccc2c(c1)OCO2	4284	-116	/	1	/	/	/
O=[N+]([O-])c1cccc(N=Cc2sc3ccccc3c2O)c1	/	/	9.2	3	5	10	3
CCC(=O)NC(c1cc(Cl)c2ccccc2c1O)C1CC1 (centres undefined)	4211	-15	12	/	0	7	3
COc1cc2c(cc1OC)CN(C(=O)CSc1ccccc1C)CC2	2961	-30	6.6	/	12	5	5
COc1cc(CNc2ccc(N3CCOCC3)cc2)ccc1OCC(=O)NC(C)(C)C	3744	-32	4.3	2	6	0	3
CC1CN=C(N(C(=O)Nc2ccccc2)C(C)C)S1 (centres undefined)	4636	-10	0.5	-1	8	-5	12
Cc1ccc(SCc2ccc(C(=O)NCc3ccncc3)cc2)cc1	9964	-16	2.1	7	-1	16	7
O=C(NCc1ccc(F)cc1)c1ccc(N2CCOCC2)c([N+](=O)[O-])c1	3756	-21	-1.9	-13	5	0	17
CCOC(=O)C1(Cc2cccc(OC)c2)CCCN(C(=O)c2ccc(OC)o2)C1 (centres undefined)	6321	-65	1.4	5	2	2	-1
O=C(CSCC(=O)NC1CC1)Nc1ccccc1	9595	-14	5.8	-4	6	8	2
O=C(N/N=C/c1ccc(-c2cccc(C(F)(F)F)c2)o1)c1cccc(F)c1	9526	-10	/	6	/	/	/
O=C(NCCc1ccncc1)c1ccccc1F	21712*	-14	0.8	-10	2	-6	1
O=C(NN=Cc1cccc([N+](=O)[O-])c1)c1cc(-c2cccnc2)nc2ccccc12	2921	-2	5.5	/	6	0	6
Cc1ccc(C(=O)CSc2nnc(COc3cccc4cccnc34)o2)cc1	7178	-38	1.9	8	-4	2	-22

(next part)
SMILES	Autofluor counter	PrP 5UTR inh	Sa RN4220 lethal	BJeLR lethal	Mtb hypoxia inh	Mtb hypoxia inh growth	Sa ugtP lethal
COc1ccc(CC(=O)OCC(=O)Nc2cccc(Br)c2)cc1	2088	-21	4.2	-6	11	-3	7
Cc1nc(C)c2c(c1C(F)(F)F)-c1ccccc1C2(F)F	9252	17	-2.4	-1	-3	1	-2
Cc1nc2ccc(S(=O)(=O)NCC(=O)O)cc2s1	2766	-16	0.9	-5	/	/	-3
NC(Cc1ccccc1)c1nn[nH]n1 (centres undefined)	4058	-22	1.4	/	17	12	4
O=C(NCC(c1ccc(F)cc1)N1CCOCC1)c1ccc(-c2ccccc2)cc1 (centres undefined)	3008	-17	-4.1	/	6	-6	12
COc1cc(C)c(C)cc1S(=O)(=O)NC1CC(C)(C)NC(C)(C)C1	3780	-24	/	0	/	/	/
COc1ccc(CCNC2CC(=O)N(CCc3ccccc3)C2=O)cc1 (centres undefined)	7127	-6	2.7	-8	9	2	16
Cc1cc(-c2c(C)[nH]n(-c3ccccc3)c2=O)n(-c2ccccc2)n1	3750	-23	3.6	2	17	4	5
NC(=S)NNC(=O)Nc1cccc(Cl)c1	2179	-16	2.0	-1	11	4	4
COC(=O)[C@@]1(Cc2ccccc2)[C@H]2C(=O)N(Cc3ccccc3)C(=O)[C@H]2[C@H]2CN=C(SCc3ccc(C)cc3)N21	3833	-20	1.3	/	-4	9	-11
CCOc1ccc(/C=N/n2c(-c3ccccc3)n[nH]c2=S)cc1	3452	-11	/	1	/	/	/
CCCN(C(=O)CSCC(=O)Nc1cccc(C)c1)c1c(N)n(Cc2ccccc2)c(=O)[nH]c1=O	6407	-12	-1.4	12	9	-2	-1
Cc1cc(C)c2nc(N3C(=O)C(O)=C(C(=O)c4ccco4)C3c3ccc(O)cc3)sc2c1 (centres undefined)	3667	-1	2.2	/	0	3	85
O=C(NCCc1c[nH]c2ccccc12)C(=O)NCC1OCCN1S(=O)(=O)c1ccc(Cl)cc1 (centres undefined)	6202	-21	2.0	10	-20	-6	0
CC(C)(C)SCCNC(=O)c1ccc(Cl)c([N+](=O)[O-])c1	2374	-17	-4.9	1	/	/	-4

Additional entries.
SMILES	Autofluor counter	PrP 5UTR inh	Sa RN4220 lethal	BJeLR lethal	Mtb hypoxia inh	Mtb hypoxia inh growth	Sa ugtP lethal
CCN(c1ccc(OC)cc1)S(=O)(=O)c1nnc(NC(=O)COc2ccc(F)cc2)s1	5273	-34	5.7	4	9	4	-7
Cc1ccccc1C(=O)N1CCC(C(=O)N2CCN(S(=O)(=O)c3ccccc3F)CC2)CC1	4325	-17	4.7	-9	-1	0	-3
CC(=O)NC(Cc1ccc(C)cc1)C(=O)NC1CCN(c2ncccc2[N+](=O)[O-])CC1 (centres undefined)	2711	-9	5.7	11	-1	-2	9
CN(CC(=O)Nc1ccc(Cl)c(C(F)(F)F)c1)C(=O)CCN1C(=O)C2CC=CCC2C1=O (centres undefined)	5420	2	22	-4	9	9	82
COc1ccc(N(CC(=O)Nc2cc([N+](=O)[O-])ccc2C)S(C)(=O)=O)cc1OC	5158	-34	-0.9	-6	-8	4	-3
Cc1c(/N=C(\[O-])Nc2ccc(Br)cc2)sn[n+]1C	6153	/	0.7	9	7	12	0
Fc1ccccc1/C=N/Nc1ncnc2ccccc12	3995	-136	/	-3	/	/	/
COc1cc(/C=C/C(=O)OCC(=O)NC(=O)NC(C)(C)C)ccc1OCC#N	2152	-5	2.1	6	14	12	7
CCn1c(=O)cc(SCC(=O)N(C)Cc2ccccc2)c2ccccc21	6621	-25	4.3	-11	8	1	-2
COC(=O)c1ccc(C(c2c(N)n(CC(C)C)c(=O)[nH]c2=O)N2CCN(c3ccccc3)CC2)cc1 (centres undefined)	3734	-11	1.4	-11	11	15	5
Cc1cc(C)nc(NN=Cc2c(C)oc3ccccc23)n1	/	/	1.7	/	9	7	7
Cn1c(=O)oc2cc(S(=O)(=O)Nc3ccc(O)cc3)ccc21	3549	-42	-2.2	2	11	12	1
O=C(CCS(=O)(=O)c1ccccc1)NCCS(=O)(=O)c1ccccc1	2512	-23	-1.1	11	8	8	4
COc1cccc(C2Nc3ccccc3C(=O)N2c2ccc(F)cc2)c1O (centres undefined)	4473	-34	4.4	-4	8	12	-4

Filtered by structure: those above with a CF3 group (3)
SMILES	Autofluor counter	PrP 5UTR inh	Sa RN4220 lethal	BJeLR lethal	Mtb hypoxia inh	Mtb hypoxia inh growth	Sa ugtP lethal
O=C(N/N=C/c1ccc(-c2cccc(C(F)(F)F)c2)o1)c1cccc(F)c1	9526	-10	/	6	/	/	/
Cc1nc(C)c2c(c1C(F)(F)F)-c1ccccc1C2(F)F	9252	17	-2.4	-1	-3	1	-2
CN(CC(=O)Nc1ccc(Cl)c(C(F)(F)F)c1)C(=O)CCN1C(=O)C2CC=CCC2C1=O (centres undefined)	5420	2	22	-4	9	9	82
